# Screening data from PubChem.
# Vif TR-FRET: inhibitors of Vif binding to APOBEC3G peptide, primary screen, biochemical, TR-FRET, GST-Vif 1-94, biotin-A3G peptide, dose response retest (AID 1117319). Virion infectivity factor (Human immunodeficiency virus type 1 group M subtype B (isolate …. TR-FRET GST-Vif / biotin-A3G peptide binding; higher % means a stronger effect; test concentration not given here; strong numbers were not always called active. one-dose inhibition, %; IC50 in µM for titrated hits. 260,000 tested, 0.57% active;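 active = above the screen mean plus three standard deviations and confirmed in dose response; inconclusive = results disagree or hit not tested in dose response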;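 also: Vif residues 1-94 fused to GST binding biotinylated APOBEC3G peptide 110-148; 0% = full assay without inhibitor and 100% = GST in place of GST-Vif; retest series ran down from 100 µM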
# Bfl-1 A1 inh: caspase 3/7 activation in MEF A1-2A-BIM cells, primary screen, A1 inhibitor project, cell-based, luminescence, HTS | Caspase-Glo 3/7 luminescence, 3 h; percent of clofoctol response, vehicle zero | caspase activation, % (concentration not given with the values) | 330,000 tested, 0.066% active | AID 2462, 2010;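 active = over half of replicate activation scores above 10%, or exactly half above 10 with the replicate mean above 10; inconclusive = replicate mean below 10 yet half the replicates above 10; inactive = over half of replicates below 10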;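 also: wells of about 30 µL received 50 nL stock; many hits fall short of the cut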
# Beta2AR agonist: beta2AR agonists driving receptor internalization, primary screen, cell-based, FAP fluorogen, flow cytometry | Beta-2 adrenergic receptor (Homo sapiens), P07550 | AID 504454, 2011 | response, % (test concentration not listed) | Am2.2-beta2AR cells; reference of the scale not given here | 340,000 tested, 0.43% active;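 active = response above a set limit, near 3 SD of response in nonfluorescent compounds, cut at about 42% in these data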;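 also: stock transfer was 100 nL into about 11 µL; a reference agonist was the positive control; negative values mostly stem from fluorescent compounds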
# Target sequence (P07550 whole entry, looked up): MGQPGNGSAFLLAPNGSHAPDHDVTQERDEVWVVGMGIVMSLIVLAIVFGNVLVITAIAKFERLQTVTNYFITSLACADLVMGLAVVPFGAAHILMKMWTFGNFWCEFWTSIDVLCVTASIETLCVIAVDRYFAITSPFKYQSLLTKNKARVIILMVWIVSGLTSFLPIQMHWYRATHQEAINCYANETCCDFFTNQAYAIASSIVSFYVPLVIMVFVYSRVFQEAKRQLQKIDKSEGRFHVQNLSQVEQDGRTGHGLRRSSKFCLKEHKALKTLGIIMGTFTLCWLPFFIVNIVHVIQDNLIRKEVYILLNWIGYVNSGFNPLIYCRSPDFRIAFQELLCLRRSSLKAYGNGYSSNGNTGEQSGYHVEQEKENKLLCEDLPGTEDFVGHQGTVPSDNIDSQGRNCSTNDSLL
# HNF4A DNA FP: change in binding of human HNF4A to DNA, primary screen, biochemical, fluorescence polarization, FITC-DNA; activity change, % at 10 µM; 360,000 tested, 0.3% active; AID 1224865, 2016; 1 h; Hepatocyte nuclear factor 4-alpha (Homo sapiens), P41235; in the data active = activity change above about 30%, passing the limit was not always enough;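 also: controls were the assay level and a saturating level of protein; the project sought stronger binding though the title names inhibitors; some compounds called inactive have numbers as strong as hits; positive values seem to mean higher polarization but the record does not say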
# Target sequence (P41235 whole entry, looked up): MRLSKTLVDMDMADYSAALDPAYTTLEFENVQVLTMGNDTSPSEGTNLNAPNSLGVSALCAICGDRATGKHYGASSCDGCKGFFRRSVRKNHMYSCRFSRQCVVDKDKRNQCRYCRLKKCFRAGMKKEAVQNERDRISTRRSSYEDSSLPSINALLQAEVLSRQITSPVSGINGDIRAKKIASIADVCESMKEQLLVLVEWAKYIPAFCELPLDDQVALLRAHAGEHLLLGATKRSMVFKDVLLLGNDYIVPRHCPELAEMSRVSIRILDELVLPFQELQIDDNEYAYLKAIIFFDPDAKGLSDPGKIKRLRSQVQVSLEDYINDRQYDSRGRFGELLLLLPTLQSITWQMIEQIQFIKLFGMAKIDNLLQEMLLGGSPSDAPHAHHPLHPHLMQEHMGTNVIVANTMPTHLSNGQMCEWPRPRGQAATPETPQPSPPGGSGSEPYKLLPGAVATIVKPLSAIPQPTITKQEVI
# UCH37 DUB inh: inhibitors of human UCH37 deubiquitinase, primary screen, biochemical, Ub-AMC cleavage, fluorescence; 330,000 tested, 0.33% active; inhibition, % (test concentration not listed); Ubiquitin carboxyl-terminal hydrolase isozyme L5 (Homo sapiens), Q9Y5K5; purified proteasome/UCH37;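 active = mean of two replicates above 20%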;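 also: 0% = compound-free wells with enzyme and 100% = wells lacking proteasome; stock transfer was 100 nL into about 20 µL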
#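 Material: human UCH37 enzyme supplied as purified proteasome complex. Measure: % inhibition of Ub-AMC cleavage fluorescence. Medium: pH 7.4 Tris-HCl (50 mM) with ovalbumin, ATP-MgCl2, DTT. Times: 30 min preincubation with enzyme, 25 min cleavage at room temperature. Detection: AMC fluorescence intensity at 355/460 nm.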
# LANA-H2A inh: blockers of LANA interaction with H2A/H2B – biochemical, FP readout, HTS, primary screen | inhibition, % (no concentration beside the values) | AID 2629, 2010 | cell-free LANA-H2A/H2B peptide, fluorescence polarization | 320,000 tested, 0.6% active; in the data active = inhibition mostly above about 10%, no sharp cut-off; inactive = mostly below about 6.7%;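 also: stock transfer was 7.5 nL into about 10 µL; 0% = median of vehicle wells and 100% = median of positive control wells; one replicate is shown; the record names a cut of 25% in any replicate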
# E coli growth: E. coli growth inhibition, primary screen, OD600; Escherichia coli growth, 23 h; hits give low values; OD600 absorbance (test concentration not listed); 330,000 tested, 0.21% active; AID 1053175, 2014;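 active = OD600 absorbance below the run mean of sample wells minus 3.6 SD, in any replicate, cut at about 0.56 in these data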;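 also: stock transfer was 300 nL into about 60 µL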
# Numbers without * were called inactive; i = inactive; ? = inconclusive; . = not tested or not shown.
SMILES,Vif TR-FRET,Bfl-1 A1 inh,Beta2AR agonist,HNF4A DNA FP,UCH37 DUB inh,LANA-H2A inh,E coli growth
CC(=O)c1ccc(OCCCC(=O)N2CCN(S(=O)(=O)c3cccs3)CC2)cc1,-2%,0.8,11,-0.1,-0.3,-2.3,0.68
CCOC(=O)c1cc2cc([N+](=O)[O-])cc(OC)c2oc1=O,4%,1.0,-9,-0.2,3.7,-1.9,0.67
CCN1CCN(C(CC(C)C)c2nnnn2CS(=O)(=O)c2ccc(C)cc2)CC1 (stereo not given),.,0.5,-5,2.5,4.2,1.6,0.69
COc1cc2cc(CCOC(=O)c3ccco3)oc(=O)c2cc1OC,.,0.8,3,-1.7,-0.1,-4.1,0.61
Cc1[nH]n(-c2ccccc2)c(=O)c1N=Nc1c(O)cc(S(=O)(=O)N(C)C)c2ccccc12,.,-1.2,9,5.7,5.5,-0.6,0.78
COc1cccc2cc(-c3nnc(-c4ccccc4)o3)c(=O)oc12,-3%,-5.2,5,-2.8,-4.1,-0.1,0.73
COc1cc(C)nc(OCCNC(=O)COc2ccc(Cl)cc2Cl)n1,-8%,1.7,-18,-0.3,-5.6,-3.4,0.77
COC(=O)c1oc2ccc(Br)cc2c1NC(=O)c1ccccc1,-1%,1.0,2,-4.0,-44,2.3,0.78
COc1cc(C(=O)NCc2ccc(C)cc2)ccc1OCc1c(C)noc1C,2%,-0.7,10,-1.0,3.7,1.7,0.7
COc1ccccc1CNC(=O)CN1CCN(c2ccc(C(C)=O)cc2)CC1,.,0.4,54*,0.4,4.1,0.8,0.62
CC(C)OC(=O)CSc1nnc(CNc2nc(-c3ccccc3)cs2)n1C,1%,-1.0,0,1.6,2.9,2.4,0.67
O=C(Nc1ccc(Br)cc1)c1cc([N+](=O)[O-])cc([N+](=O)[O-])c1,.,0.3,-11,1.3,-0.7,-1.2,0.62
Cc1ccc(CSc2nc3c(c(SCC(=O)O)n2)CCCC3)cc1,6%,1.0,-10,1.5,2.5,5.5,0.71
COc1ccc(Cc2nc3ccc(C(=O)NCC(C)(C)OC)cc3o2)cc1,.,-0.7,2,3.2,2.2,-7.6,0.65
Cc1ccc(NC(=O)CO/N=C/c2ccc(N(C)C)cc2)cc1,1%,-0.4,-24,72*,.,-16,.
C#CCOCCOCCOCCNc1nc(N2CCN(C(=O)[C@H](Cc3cc4ccccc4[nH]3)n3cc([C@@H](N)C(C)CC)nn3)CC2)nc(N2CCN(C(=O)[C@H](CCCCN)n3cc([C@@H](N)CC(C)C)nn3)CC2)n1 (stereo not given in full),-2%,0.4,.,.,5.4,-6.0,.
Cc1cccc(-c2noc(CCCC(=O)Nc3cccnc3)n2)c1,5%,1.3,-3,3.8,2.7,-1.2,0.63
CCN1CCN(S(=O)(=O)c2ccc(OC)c(NC(=O)c3ccccc3)c2)CC1,.,-0.9,2,0.2,3.6,3.5,0.69
CCC(=O)Nc1nc2ccc(S(C)(=O)=O)cc2s1,3%,-0.4,-2,0.6,-0.8,5.4,0.76
Cc1ccc(OCCC(=O)O)cc1,.,0.7,-3,-5.5,1.5,-13,0.64
Cc1ccc(S(=O)(=O)/N=C2/NC(=O)/C(=C\c3ccccc3)S2)cc1,.,-0.4,3,-2.6,12,0.3,0.71
COc1ccccc1OCCNC(=O)C(CCSC)NS(=O)(=O)c1ccccc1F (stereo not given),7%,0.0,3,-1.0,0.6,-1.3,0.62
Cc1cccc(C2=NN(c3ccccc3)[C@@H](C(=O)N3CCOC3=O)[C@@H]2c2ccccc2)c1,-4%,.,7,3.2,-81,.,0.71
Cc1onc(-c2c(F)cccc2Cl)c1C(=O)NC1=NCCS1,2%,1.8,0,-2.5,0.8,5.5,0.67
O=C(CN(C1CCCCC1)S(=O)(=O)c1ccc(Br)cc1)NCc1ccncc1,22%,-0.2,-9,2.5,2.9,-7.7,0.65
# Next section:
SMILES,Vif TR-FRET,Bfl-1 A1 inh,Beta2AR agonist,HNF4A DNA FP,UCH37 DUB inh,LANA-H2A inh,E coli growth
O=C(Cn1[nH]c(=O)c2ccccc2c1=O)NC1CCCCCC1,6%,0.8,-5,-0.9,-1.0,3.8,0.79
Cc1ccc(NC(=O)c2ccc3c(=O)n4c(nc3c2)CCCCC4)nc1,-5%,-0.4,-7,1.8,0.1,3.8,0.66
Cc1ccc(CC(=O)NC2CCN(Cc3ccccc3)CC2)cc1,-2%,-0.9,-3,2.9,1.3,-2.8,0.66
CCOC(=O)C1(Cc2ccccc2C)CCCN(C(=O)COC)C1 (stereo not given),.,2.1,-6,-2.5,2.1,0.6,0.66
CCOC(=O)c1c(N)nn(C(=O)C(C)C)c1-c1ccc(OC)cc1,0%,-0.2,-5,0.0,6.1,-6.6,0.7
CC(C)c1nc(CNC(=O)C2CCC(=O)N(Cc3ccc(Cl)cc3)C2)no1 (stereo not given),.,0.4,-6,0.0,2.0,0.8,0.63
Nc1c(C(=O)NCCc2ccccc2)nnn1Cc1ccc(Br)cc1F,2%,-0.2,-6,-0.9,2.5,-4.7,0.74
Cc1ccc2nc3c(cc2c1)c(C)nn3-c1ccccc1,-4%,1.0,11,3.8,-121,0.8,0.66
COc1ccc(C(=O)c2cn[nH]c2-c2cc(Cl)ccc2O)cc1,2%,-0.6,0,1.6,0.6,1.4,0.64
N/C(=N\OC(=O)c1ccccc1[N+](=O)[O-])c1cccnc1,4%,-0.7,-10,0.2,.,2.7,.
COc1ccc(NS(=O)(=O)c2ccc(NC(=O)c3ccc(Br)cc3)cc2)nn1,3%,0.8,6,-3.4,2.7,-2.0,0.68
COc1ccc(CCNC(=O)CSc2nc(=O)[nH]c3c2CCC3)cc1OC,-8%,-0.5,1,0.1,4.5,-6.7,0.61
Cc1ccc(S(=O)(=O)N(C)C)cc1NC(=O)C(C)Sc1ccccc1 (stereo not given),-4%,0.9,1,-0.2,2.1,0.1,0.7
NS(=O)(=O)c1ccc(NC(=O)COC(=O)c2cc(Cl)ccc2[N+](=O)[O-])cc1,76%,0.9,-6,-2.5,3.7,0.4,0.68
Cc1ccc(Nc2nc(N)nc(CN3CCN(Cc4ccc5c(c4)OCO5)CC3)n2)cc1Cl,-3%,-0.5,0,1.2,5.0,-0.8,0.68
Nc1c(C(=O)Nc2ccccc2Cl)nnn1-c1ccc2c(c1)OCCO2,-6%,-0.4,-1,2.1,1.0,12,0.68
O=C(CN1CCOCC1)Nc1ccc(OCc2ccccc2)cc1,7%,-1.4,-9,1.5,2.3,-2.2,0.75
N#CCC(=O)Nc1cc(C(F)(F)F)ccc1N1CCOCC1,5%,-1.1,4,2.5,-0.6,-1.3,0.66
CCN(C(=O)c1cc2c(=O)n3ccccc3nc2s1)C1CCCCC1,.,0.0,-13,0.9,i,3.4,0.66
O=C(CCCOc1ccc(Cl)cc1Cl)N/N=C/c1ccccc1,.,-0.2,-2,-1.3,.,1.2,.
CCCNC(=O)c1ccc(C2SCC(=O)N2Cc2ccccc2)cc1 (stereo not given),1%,0.7,1,5.6,4.1,0.1,0.67
Cc1cc(-c2c(C)[nH]n(-c3ccc(Cl)cc3)c2=O)n(-c2ccc(Cl)cc2)n1,?,-1.7,-1,-2.3,3.6,2.8,0.66
COc1ccccc1C1CC(c2ccccc2)=NN1C(=S)Nc1ccccc1 (stereo not given),26%,0.1,10,4.5,4.7,-6.3,0.76
COc1c(Cl)cc(Cl)cc1/C=C/C(=O)c1ccc(NC(=O)c2cccs2)cc1,-8%,-1.3,32,3.9,5.1,1.9,0.72
CC(C)CNC(=S)N1CCN(C(c2ccccc2)c2ccccc2)CC1,-7%,0.8,11,-1.5,-4.3,-2.5,0.73
# Carrying on:
SMILES,Vif TR-FRET,Bfl-1 A1 inh,Beta2AR agonist,HNF4A DNA FP,UCH37 DUB inh,LANA-H2A inh,E coli growth
CCc1ccccc1NC(=O)c1ccc(Cn2cc([N+](=O)[O-])cn2)cc1,.,0.4,1,-0.8,3.1,.,0.68
CCN(CC(=O)Nc1c(F)cccc1F)C(=O)c1ccc(-c2ccc(C(C)=O)cc2)o1,-7%,1.0,-1,3.1,-395,-3.7,0.7
CNC(=O)NC(=O)CSc1cccc(C(F)(F)F)c1,-7%,-1.4,-1,2.6,0.2,1.4,0.67
CCOC(=O)C1CCN(Cc2c(O)c3ccccc3oc2=O)CC1,-6%,0.9,-5,1.9,1.8,-5.9,0.67
CN(Cc1ccccc1)C(=O)CSc1nnc(-c2ccco2)n1-c1ccccc1,?,0.6,-5,1.2,0.0,-5.4,0.68
COc1ccccc1C(=O)COC(=O)c1cnc(C)cn1,7%,0.0,-7,-3.8,3.2,-4.6,0.64
Cc1ccc(Cc2c(C)nc3nc(SCC(=O)NCCN4CCOCC4)nn3c2C)cc1,2%,0.6,3,0.0,1.9,4.4,0.67
COC(=O)c1cc(S(=O)(=O)Nc2c(C)cccc2C)cn1C,.,0.3,2,-5.2,7.2,1.2,0.71
COC(=O)C1=C(C)NC(=O)/C1=C\c1cc(C)n(-c2ccccc2C)c1C,14µM*,-0.2,1,0.7,2.8,3.1,0.75
Cc1c(N2C(=O)C(=O)/C(=C(/O)c3ccccc3)C2c2ccc(F)cc2)c(=O)n(-c2ccccc2)n1C (stereo not given),22%,-0.5,-8,0.0,9.8,-6.9,0.69
COc1ccc(CN(C)CC(O)COc2ccc(-c3ccccc3)cc2)cc1OC (stereo not given),.,0.1,4,0.2,7.4,-3.8,0.64
COc1ccc(C(=O)NCc2ccc3c(c2)CCO3)cc1,.,0.0,-3,-2.4,0.6,-0.5,0.63
NC(=O)c1c(NC(=O)C2CCCO2)sc2c1CCCCC2 (stereo not given),20%,0.6,3,2.3,2.8,0.6,0.7
COCC(C)NS(=O)(=O)c1ccc(OC)cc1 (stereo not given),4%,.,2,3.3,-1.3,-0.4,0.66
COC(=O)n1c(=O)oc2cc(S(=O)(=O)N3CCOCC3)ccc21,-1%,0.5,3,-1.6,2.0,2.7,0.67
Cc1ccccc1NC(=O)COC(=O)COc1ccc2c(c1)CCC2,-5%,.,-2,0.7,1.9,.,0.69
CC(=O)c1ccc(OCC(O)CN2CCc3ccccc3C2)cc1 (stereo not given),.,1.5,-6,6.8,1.7,-5.5,0.69
O=C(CNS(=O)(=O)c1ccccc1)NCC(=O)OCc1ccccc1F,.,-0.3,4,-2.0,-1.4,-1.8,0.7
O=C(Nc1cc(SCC(O)CO)cc([N+](=O)[O-])c1)c1ccc(-n2cnnn2)cc1 (stereo not given),6%,-0.3,-2,0.5,6.1,-0.1,0.65
Cc1ccc(-c2nnc(SCC(=O)NC3CCCC3)n2N)cc1,9%,0.0,-1,0.6,3.0,-0.2,0.68
O=C(NNC(=O)C1CCCN(c2ncccn2)C1)c1ccc(F)cc1 (stereo not given),-2%,1.0,-5,0.9,-2.1,-1.2,0.68
COc1ccc(/C=C/C(=O)NCC(=O)N/N=C(/C)c2ccco2)cc1,.,1.1,4,0.0,.,-3.6,.
CN(c1ccccc1)P(=O)(N(C)c1ccccc1)N(C)c1ccccc1,-3%,-0.6,2,1.3,-2.0,-2.8,0.7

# Molecules listed so far with a CF3 group (2):
SMILES,Vif TR-FRET,Bfl-1 A1 inh,Beta2AR agonist,HNF4A DNA FP,UCH37 DUB inh,LANA-H2A inh,E coli growth
N#CCC(=O)Nc1cc(C(F)(F)F)ccc1N1CCOCC1,5%,-1.1,4,2.5,-0.6,-1.3,0.66
CNC(=O)NC(=O)CSc1cccc(C(F)(F)F)c1,-7%,-1.4,-1,2.6,0.2,1.4,0.67
